Ecoli rRNA inh: selective bacterial rRNA inhibition in E. coli; GFP signal change (wild-type ribosome), % (no concentration beside the values); E. coli WT GFP vs humanized-ribosome RFP mutants, fluorescence, 24 h; active compounds read low; DMSO median 0, no signal -100; 350,000 tested, 1.6% active;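 active = significant combined selectivity score with lowered wild-type GFP, culture density cut under 30%, mutant RFP and density less affected; inactive = any of these conditions unmet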; also: one replicate is shown; some compounds called inactive have numbers as strong as hits
Ecoli rRNA inh OD600: also measured in Ecoli rRNA inh; calls as there; OD600 change, %; measured here: OD600 growth;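 optical density of the mix in the first replicate; 0 = DMSO median and -100 = no signal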
Ecoli rRNA inh RFP: further read-out of Ecoli rRNA inh, marked with its call; RFP signal change, %; measured here: RFP humanized mutant strains;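 first replicate; 0 = DMSO median and -100 = no signal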
* = called active by the depositor; & = joins results of further samples. Not all compounds are listed, so the mix of outcomes need not match the whole.

| Ecoli rRNA inh | Ecoli rRNA inh OD600 | Ecoli rRNA inh RFP | Structure |
| --- | --- | --- | --- |
| 4 | 6 | -0.3 | COCC(=O)Nc1ccc2c(c1)C(=O)N(C)C[C@@H](OC)[C@H](C)CN(Cc1ccccn1)[C@H](C)CO2 |
| 5 | -1 | -0.5 | CC(C)=CCC[C@H](C)C[C@@H]1Cc2[nH][nH]c(=O)c2[C@H](c2ccc(F)cc2)O1 |
| 0 | 2 | 0.0 | O=C(N[C@@H]1C=C[C@H](CC(=O)N2CCc3ccccc3C2)O[C@@H]1CO)C1CC1 |
| -7 | 1 | 6.8 | Cc1cccc(S(=O)(=O)N2C[C@@H]3[C@H](c4ccccc42)[C@H](CO)N3Cc2cccnc2)c1 |
| 7 | 10 | -3.1 | O=C(C[C@@H]1CC[C@@H]2[C@H](COC[C@H](O)CN2C(=O)c2cnccn2)O1)NCc1ccc(F)cc1 |
| -4 | 5 | 3.7 | C[C@H]1CN([C@@H](C)CO)C(=O)c2c(c3ccccc3n2C)-c2ccccc2CO[C@H]1CN(C)S(=O)(=O)c1ccccc1 |
| 0 | -1 | 3.6 | C[C@H](CO)N1C[C@H](C)[C@H](CN(C)S(=O)(=O)c2ccc(F)cc2)Oc2ccc(NC(=O)Nc3ccc4c(c3)OCO4)cc2CC1=O |
| 8 | 11 | 0.3 | C=CC1=CCN(S(=O)(=O)C(C)(C)C)[C@@H]1CCO |
| 1 | -5 | -4.0 | O=C(NCC1CC1)[C@H]1[C@H](CO)[C@H]2Cn3c(ccc(-c4cccnc4)c3=O)[C@@H]1N2C(=O)C1CCCCC1 |
| 2 | 5 | -1.1 | CO[C@H]1CN(C)C(=O)c2ccc(NC(=O)C3CC3)cc2OC[C@@H](C)N(C(C)=O)C[C@H]1C |
| 9 | 3 | 8.2 | C=Cc1ccc(Cn2c(C)c(C(=O)NCc3ccc(Cl)c(Cl)c3)sc2=O)cc1 |
| -33 | -42 | 12 | COc1ccc2c3c([nH]c2c1)[C@H](CO)N(C(=O)Nc1ccc(F)cc1)CC31CN(Cc2cc(F)ccc2F)C1 |
| 0 | 1 | -0.6 | COCC(=O)N1C[C@H](C)[C@H](OC)CN(C)C(=O)c2ccc(NC(=O)NC(C)C)cc2OC[C@H]1C |
| -5 | 4 | -1.1 | CC1(C(=O)NS(=O)(=O)c2cccc(C#N)c2)CCN1C(=O)c1ccccc1CCc1ccccc1 (stereo unspecified) |
| -10 | 2 | 4.3 | COc1ccc(Cc2c(-c3ccc(C)cc3)nc3c4ccccc4ccn23)c(C)c1 |
| 5 | 15 | 3.7 | COCCNc1nc(NCc2cnc(C)cn2)c2sccc2n1 |
| -1&22 | 0&14 | -1.0&1.5 | C[C@@H]1CN([C@H](C)CO)C(=O)CCCn2cc(nn2)CO[C@H]1CN(C)S(=O)(=O)c1ccc(F)cc1 |
| 0 | -1 | -0.1 | CCCC(=O)Nc1ccc2c(c1)C(=O)N(C)[C@H]1CC[C@@H](CC(=O)NCC(F)(F)F)O[C@H]1CO2 |
| -7 | 17 | 4.8 | Cc1nn(C)cc1NC(=O)C[C@H]1CC[C@@H]2[C@@H](COc3ccc(NC(=O)C4CCC4)cc3C(=O)N2C)O1 |
| 0 | 2 | 8.6 | CCCNC(=O)[C@H]1[C@H](CO)[C@H]2Cn3c(ccc(C4=CCCCC4)c3=O)[C@H]2N1Cc1ccccc1F |
| -6 | -3 | 1.8 | O=C(C[C@@H]1C=C[C@@H](NC(=O)Nc2ccc(C(F)(F)F)cc2)[C@H](CO)O1)NCc1cc(F)cc(F)c1 |
| 3 | 2 | 1.1 | CCCNC(=O)N1CC2(CCN(C)CC2)c2c(n(C)c3cc(OC)ccc23)[C@H]1CO |
| -1 | -1 | -1.2 | COc1ccc(CN(C)C[C@H]2Oc3ccc(NC(=O)Nc4c(C)noc4C)cc3CC(=O)N([C@@H](C)CO)C[C@H]2C)cc1 |
| -5 | 0 | -2.4 | C[C@H]1CN([C@@H](C)CO)C(=O)c2cccc(NC(=O)Nc3ccc(C(F)(F)F)cc3)c2O[C@@H]1CN(C)C(=O)NC1CCCCC1 |
| 1 | 4 | 1.2 | Cc1ccccc1S(=O)(=O)N1[C@H](CO)[C@@H](c2ccc(C#CC3CCCCC3)cc2)[C@@H]1C#N |
| -31 | -41 | -3.0 | CC1(C(=O)NS(=O)(=O)c2ccc(Cl)cc2)CCN1C(=O)C1(c2ccccc2)CCCC1 (stereo unspecified) |
| -1 | 12 | -2.1 | O=C(Nc1ccccc1)Nc1nnc([C@H]2C[C@H](O)[C@@H](CO)O2)s1 |
| 4 | 4 | -1.7 | C[C@H](CO)N1C[C@H](C)[C@H](CN(C)C)Oc2cc(-c3ccc(C(=O)N(C)C)cc3)ccc2S1(=O)=O |
| -1 | -12 | -2.4 | C[C@@H]1CN([C@H](C)CO)C(=O)c2cc(C#C[C@@H](C)O)cnc2O[C@H]1CN(C)Cc1cccc(C(=O)O)c1 |
| 0 | 5 | 2.3 | Cc1noc(C)c1S(=O)(=O)Nc1ccc2c(c1)C(=O)N([C@@H](C)CO)C[C@@H](C)[C@H](CN(C)Cc1ccncc1)OCCCC[C@@H](C)O2 |
| -2 | -4 | -2.1 | CCC(=O)N(C)C[C@@H]1Oc2cc(-c3ccncc3)ccc2S(=O)(=O)N([C@@H](C)CO)C[C@H]1C |
| -3 | -22 | 0.7 | COc1ccc(C(O)c2nc(-c3cnc4ccccc4c3)cs2)cc1 (stereo unspecified) |
| -4 | -5 | 1.0 | C#CCNC(=O)C[C@@H]1C[C@@]2(C(=O)OCC)CCCC=C2N(Cc2ccc3c(c2)OCO3)C1=O |
| 2 | 19 | -2.3 | O=C(c1ccncc1)N1CCCCN2[C@@H](CO)[C@H](c3ccc(C#Cc4ccccn4)cc3)[C@@H]2C1 |
| -3 | 5 | 1.3 | Cc1noc(C)c1S(=O)(=O)Nc1cccc2c1O[C@H](CN(C)C(=O)NC1CCCCC1)[C@H](C)CN([C@H](C)CO)C2=O |
| 5 | 2 | 1.9 | CC1=C(C(=O)N(C)C)CC(CC(=O)NC(c2ccccc2)c2ccccc2)C(=O)N1CCCN1CCCC1=O (stereo unspecified) |
| -2 | 2 | -1.0 | O=C(C[C@H]1C[C@@H]2c3cc(NC(=O)C4CCOCC4)ccc3O[C@@H]2[C@@H](CO)O1)NC1CCCCC1 |
| 1 | -3 | 1.2 | C[C@H]1CN([C@@H](C)CO)C(=O)Cc2cc(NC(=O)Cc3ccccc3)ccc2O[C@@H]1CN(C)S(=O)(=O)c1ccc(Cl)cc1 |
| -1 | 1 | 0.3 | CCCN(C)C[C@H]1OCc2ccccc2-c2ccccc2C(=O)N([C@@H](C)CO)C[C@H]1C |
| 2 | -5 | -1.0 | CNC(=O)C[C@@H]1CC[C@H]2[C@@H](COc3ccc(NC(=O)Nc4ccc(C)cc4)cc3C(=O)N2C)O1 |
| -1 | -1 | 1.2 | Cn1c(=O)c2cc(NC(=O)CC(C)(C)C)ccc2n1-c1ccccc1F |
| 1 | -1 | -0.4 | CNC[C@@H]1Oc2ccc(NC(=O)Nc3ccccc3)cc2C(=O)N([C@@H](C)CO)C[C@@H]1C |
| -4 | -2 | -3.0 | C[C@H]1CN([C@@H](C)CO)C(=O)c2cc(Br)cnc2O[C@H]1CN(C)Cc1cccc(F)c1 |
| -1 | 2 | 0.9 | CS(=O)(=O)N1CCCCN2[C@H](CO)[C@H](c3ccc(-c4cccc(C#N)c4)cc3)[C@@H]2C1 |
| -4 | 6 | -0.9 | COc1cccc(NC(=O)N(C)C[C@@H]2Oc3cc(C#Cc4ccc(F)cc4)ccc3S(=O)(=O)N([C@H](C)CO)C[C@@H]2C)c1 |
| -6 | -10 | 0.9 | C[C@@H]1CN([C@@H](C)CO)C(=O)c2cc(NC(=O)C3CCCCC3)ccc2O[C@@H]1CN(C)C(=O)Nc1ccc(C(F)(F)F)cc1 |
| -4 | -14 | 1.2 | CCCC#Cc1ccc2c(c1)O[C@@H](CN(C)Cc1ccc3c(c1)OCO3)[C@@H](C)CN([C@H](C)CO)S2(=O)=O |
| 3 | 6 | -1.8 | CN(C)C(=O)C[C@H]1CC[C@@H](NC(=O)c2ccc(F)cc2)[C@H](CO)O1 |
| 0 | -6 | -0.8 | C[C@@H]1CCCCO[C@@H](CN(C)S(=O)(=O)c2ccc(Cl)cc2)[C@H](C)CN([C@@H](C)CO)C(=O)c2cc(NC(=O)CCC(F)(F)F)ccc2O1 |
| 9 | 19 | -1.3 | COc1ccc(CCN2CC(=O)N3CCc4ccc(N5CCOCC5)cc4C3CC2=O)cc1OC (stereo unspecified) |

Going on with the list.
| Ecoli rRNA inh | Ecoli rRNA inh OD600 | Ecoli rRNA inh RFP | Structure |
| --- | --- | --- | --- |
| -2 | 5 | -0.5 | Cc1onc(-c2ccccc2)c1C(=O)OCC(=O)Nc1ccccc1Cl |
| -3 | -7 | 3.3 | C[C@H]1CCCCO[C@H](CN(C)Cc2ccc(Cl)c(Cl)c2)[C@@H](C)CN([C@@H](C)CO)C(=O)c2cc(NC(=O)CCC(F)(F)F)ccc2O1 |
| 1 | 1 | 0.1 | COCC(=O)Nc1ccc2c(c1)C(=O)N(C)C[C@@H](OC)[C@@H](C)CN(C(=O)NC(C)C)[C@H](C)CO2 |
| -2 | 0 | 0.0 | O=C(Nc1ccc(F)cc1)N[C@H]1CC[C@H](CCNC(=O)c2ccccc2F)O[C@H]1CO |
| 19 | 30 | -0.2 | Cc1cccc(C)c1NC(=O)c1csc([C@@H]2O[C@H](CO)[C@H](O)[C@H](O)[C@H]2O)n1 |
| -11 | -24 | -0.3 | N#Cc1nc2ccccc2n1OCc1ccccc1 |
| 1 | -1 | -0.9 | O=C(C[C@@H]1C[C@@H]2c3cc(NC(=O)CC4CC4)ccc3O[C@@H]2[C@@H](CO)O1)NCc1ccccc1 |
| -2 | -8 | -1.0 | COc1ccc(CN(C)C[C@H]2OCCCC[C@H](C)Oc3ccc(NC(=O)Nc4c(C)noc4C)cc3C(=O)N([C@@H](C)CO)C[C@H]2C)cc1 |
| -3 | 6 | 1.9 | C[C@@H]1CN([C@@H](C)CO)S(=O)(=O)c2ccc(C#Cc3ccccc3F)cc2O[C@@H]1CN(C)C(=O)Cc1ccccc1 |
| 6 | 14 | -1.1 | Cc1ccccc1S(=O)(=O)Nc1ccc2c(c1)C(=O)N(C)[C@@H]1CC[C@H](CC(=O)O)O[C@H]1CO2 |

Complete entries as entered above. Screens in order: Ecoli rRNA inh | Ecoli rRNA inh OD600 | Ecoli rRNA inh RFP
Entry for CNC[C@@H]1Oc2ccc(NC(=O)Nc3ccccc3)cc2C(=O)N([C@@H](C)CO)C[C@@H]1C : 1 | -1 | -0.4
Entry for CC1=C(C(=O)N(C)C)CC(CC(=O)NC(c2ccccc2)c2ccccc2)C(=O)N1CCCN1CCCC1=O (stereo unspecified) : 5 | 2 | 1.9
Entry for Cc1noc(C)c1S(=O)(=O)Nc1cccc2c1O[C@H](CN(C)C(=O)NC1CCCCC1)[C@H](C)CN([C@H](C)CO)C2=O : -3 | 5 | 1.3
Entry for Cn1c(=O)c2cc(NC(=O)CC(C)(C)C)ccc2n1-c1ccccc1F : -1 | -1 | 1.2
Entry for CC1(C(=O)NS(=O)(=O)c2cccc(C#N)c2)CCN1C(=O)c1ccccc1CCc1ccccc1 (stereo unspecified) : -5 | 4 | -1.1

The results go on:
| Ecoli rRNA inh | Ecoli rRNA inh OD600 | Ecoli rRNA inh RFP | Structure |
| --- | --- | --- | --- |
| -36 | -82 | -24 | Oc1cccc2cc(Nc3ccccc3)cnc12 |
| 5 | 0 | 2.6 | Cc1cc(Br)ccc1NC(=O)CN(C)C(=O)c1ccccc1OCc1c(C)noc1C |
| -4 | -5 | -0.8 | C[C@@H]1CN([C@H](C)CO)C(=O)Cc2cc(NC(=O)c3ccncc3)ccc2O[C@H]1CN(C)C(=O)Nc1cccc2ccccc12 |
| 3 | -7 | 5.6 | C[C@H]1CN([C@@H](C)CO)C(=O)c2cc(NS(=O)(=O)c3ccccc3)ccc2O[C@H]1CN(C)Cc1ccc(-c2ccccc2)cc1 |
| 1 | -1 | -0.5 | C[C@@H]1CCCCO[C@H](CN(C)Cc2ccc(C(=O)Nc3ccccc3N)cc2)[C@@H](C)CN([C@H](C)CO)C(=O)c2cc(NS(=O)(=O)c3cccs3)ccc2O1 |
| -2 | -4 | -2.3 | CCCNC(=O)C[C@@H]1CC[C@@H]2[C@H](COC[C@H](O)CN2Cc2ccc(Cl)c(Cl)c2)O1 |
| 3 | 10 | -0.8 | OC[C@@H]1[C@@H](c2ccccc2)C2(CN(CC3CCOCC3)C2)N1Cc1nccs1 |
| -1 | 8 | -0.2 | C[C@@H]1CN([C@@H](C)CO)C(=O)c2cc(NC(=O)CCC(F)(F)F)ccc2O[C@@H]1CN(C)C(=O)Nc1cccc2ccccc12 |
| -2 | 4 | -1.9 | Cc1noc(C)c1NC(=O)Nc1cccc2c1O[C@@H](CN(C)C(=O)NC1CCCCC1)[C@@H](C)CN([C@H](C)CO)C2=O |
| -55 | -77 | -12 | N#Cc1ccc(OCCCN2CCC(C(O)(C3=CCCC3)c3ccccc3)CC2)cc1 (stereo unspecified) |
| -13 | -39 | 13 | CC(C)C#Cc1ccc2c(c1)O[C@H](CN(C)Cc1ccncc1)[C@H](C)CN([C@H](C)CO)S2(=O)=O |
| 1 | -34 | 0.7 | CO[C@H]1CN(C)C(=O)c2cc(NC(=O)C3CCC3)ccc2OC[C@@H](C)N(Cc2ccc(F)cc2)C[C@@H]1C |
| 2 | 4 | -1.4 | O=C(NC1CCCC1)N[C@H]1C=C[C@H](CC(=O)N2CCOCC2)O[C@H]1CO |
| 4 | 1 | 0.2 | COc1ccc(NC(=O)Nc2ccc3c(c2)C(=O)N([C@H](C)CO)C[C@H](C)[C@H](CN(C)C(=O)Nc2ccc(OC)cc2)OCCCC[C@@H](C)O3)cc1 |
